Screens deposited in PubChem BioAssay by National Center for Advancing Translational Sciences (NCATS).
StopGo RLuc = lowers the Renilla signal of an FMDV 2A StopGo reporter; 120,000 tested, 0.32% active; HEK cells with a luciferase reporter of 2A StopGo recoding; AID 1745857; Potency, µM (highest dose often 57.5 µM), for the others: top-dose signal change, negative = less light; active means well fitted falling curve with a large enough effect; inconclusive means small, poorly fitted or top-dose-only effect; inactive means no such curve, though single readings can be large or run the other way; further: nearly all actives have a fitted effect of over 55% in size; overnight with compound
2A firefly = FMDV 2A StopGo reporter, firefly signal | HEK cells with a luciferase reporter of 2A StopGo recoding | Potency, µM (doses to about 57.5 µM), for the others: at the highest dose signal change, negative = less light | 120,000 tested, 0.23% active; active = well fitted falling curve with a large enough effect; inconclusive = small, poorly fitted or top-dose-only effect; inactive = no such curve, though single readings can be large or run the other way; further: nearly all actives have a fitted effect of over 60% in size; overnight with compound
* marks the source's active call; other numbers are inactive results; & = joins results of further samples; [ ] = another dose, or the depositor's remark. On the % scale 0 is the no-effect control and ±100 the full control effect; potency means the concentration at half of the fitted maximal effect.

For COc1cccc(NC(=O)c2cc3c(=O)n(C)c4ccccc4c3n2C)c1 the results were StopGo RLuc -6% and 2A firefly -24%.
CCN1CCN(c2cc(C)c3cc(NC(=O)/C=C/c4ccc(C)cc4)ccc3n2)CC1 was read as StopGo RLuc -9% and 2A firefly -1%.
`COc1cc(OC)cc(C(=O)Nc2ccc3oc(-c4ccc(Cl)cc4)nc3c2)c1` gave StopGo RLuc 0% and 2A firefly 2%.
Screening Cc1ccc(Nc2nc(NCc3ccc4c(c3)OCO4)nc3nccnc23)c(C)c1 returned StopGo RLuc -11% and 2A firefly -8%.
For CC(OC(=O)c1ccc(O)cc1)C(N)=O (stereo not drawn) the results were StopGo RLuc 10% and 2A firefly 0%.
Screening CCc1ccc(S(=O)(=O)Nc2cccc(-c3ccc(N4CCOCC4)nn3)c2)cc1 returned StopGo RLuc 2% and 2A firefly 54%[activator].
For Cc1ccc(-n2nc(-c3noc(C(=O)N4CCC(c5ccccc5)C4)n3)c(=O)n(C)c2=O)cc1 (stereo not drawn) the results were StopGo RLuc -10% and 2A firefly -5%.
Screening CCCN(CCC)S(=O)(=O)c1ccc(SCC(=O)OCC)c([N+](=O)[O-])c1 returned StopGo RLuc 39%[activator] and 2A firefly 0%.
Screening Cc1cccc2nc(-c3ccc(N4CCOCC4)cc3)c(Nc3ccc4c(c3)OCCO4)n12 returned StopGo RLuc 0% and 2A firefly 166%[activator].
CN1CCN(C(CNC(=O)C(=O)Nc2ccc(F)cc2F)c2ccc3c(c2)OCO3)CC1 (stereo not drawn) was read as StopGo RLuc -15% and 2A firefly -10%.
For Cc1ccc(NC(=O)CN(C)S(=O)(=O)c2ccc3c(c2)CCC(=O)N3)c(C)c1 the results were StopGo RLuc -10% and 2A firefly -17%.
`CC(=O)Oc1cccc(O)c1` gave StopGo RLuc -17% and 2A firefly -2%[11.5 µM].
Screening CSCCC(=O)Nc1ccc2c(c1)CCC2 returned StopGo RLuc -12%[1.06 µM] and 2A firefly 64%[activator].
For Cc1c(C(=O)Nc2ccc3c(c2)C(=O)OC3)nnn1-c1ccc(Br)cc1 the results were StopGo RLuc 0% and 2A firefly 10%.
For CCn1nnnc1SCCS(=O)(=O)c1cc(Cl)ccc1Cl the results were StopGo RLuc 1% and 2A firefly -4%.
For Fc1ccc(N2CCN(Cc3cccn3-c3nnc(N4CCN(C5CCCCC5)CC4)s3)CC2)cc1 the results were StopGo RLuc -3% and 2A firefly -2%.
For Cc1ccc(NS(=O)(=O)c2ccc3c4c(cccc24)C(=O)N3)c(C)c1 the results were StopGo RLuc 0% and 2A firefly -18%.
`CC(C)CNC(=O)c1cc(-c2cccs2)nc2ccccc12` gave StopGo RLuc 7% and 2A firefly 4%.
For N#Cc1c(-c2ccccc2)cc(-c2cccs2)nc1SCCS(=O)(=O)Cc1ccccc1 the results were StopGo RLuc 7% and 2A firefly -5%.
Cc1cccc(NC(=O)CSCn2nnc3c(=O)[nH]c(Cc4ccc(F)cc4)nc32)c1C was read as StopGo RLuc 28% and 2A firefly 4%.
For COc1ccc(-c2nc3cc(NC(=O)CC(C)C)ccc3o2)cc1 the results were StopGo RLuc 39% and 2A firefly 109%[activator].
For CCOc1ccc(-c2cc(C(=O)Nc3ccc(NC(C)=O)cc3)no2)cc1 the results were StopGo RLuc -17% and 2A firefly 12%.
For Cc1ccc(-c2nc3nc(C)cc(N4CCN(c5cccc(C)c5)C(C)C4)n3n2)cc1 (stereo not drawn) the results were StopGo RLuc -16% and 2A firefly -15%.
For Nc1ccc(O)c(C(=O)O)c1 the results were StopGo RLuc -10% and 2A firefly -16%.
Screening Cc1ccccc1Cc1sc(N)nc1C returned StopGo RLuc 9% and 2A firefly 0%.
Cc1ccccc1N1C(=O)c2cc(S(N)(=O)=O)c(Cl)cc2NC1C (stereo not drawn) was read as StopGo RLuc -4% and 2A firefly -13%.
CSCCC(NS(=O)(=O)c1ccc2c(c1)oc(=O)n2C)C(=O)Nc1ccc(F)c(Cl)c1 (stereo not drawn) was read as StopGo RLuc 20% and 2A firefly -10%.
For N#CC1=C(N)OC2=C(C(=O)CC(c3ccccc3)C2)C1c1ccccc1Br (stereo not drawn) the results were StopGo RLuc -14% and 2A firefly -10%.
CCCCC(=O)NC1(C(F)(F)F)C(=O)N(C2CCCC2)C(C)=C1C(=O)OC (stereo not drawn) was read as StopGo RLuc 11% and 2A firefly -15%.
For CCc1cccc(-n2c(C)nc3c(cnn3-c3ccc(C)c(C)c3)c2=O)c1 the results were StopGo RLuc 0% and 2A firefly 71%[activator].
Cc1c(-c2cccc(Cl)c2)nc2ccccc2c1C(=O)NC1CCCCCCCCCCC1 was read as StopGo RLuc -1% and 2A firefly -10%.
CS(=O)(=O)CCC(C(=O)Nc1cccc(C(F)(F)F)c1)N1Cc2ccccc2C1=O (stereo not drawn) was read as StopGo RLuc 27% and 2A firefly 0%.
For COc1ccc(CCC(=O)NCc2nc3cccnc3n2Cc2ccc(C)cc2)cc1 the results were StopGo RLuc 67%[activator] and 2A firefly 0%.
`Cc1ccc2cc(/C=C/C(=O)NC3CCCCC3)oc2c1` gave StopGo RLuc -3% and 2A firefly 0%.
`COC(=O)c1cc(C(=O)OC)cc(S(=O)(=O)N2CCCC2c2nc3ccccc3[nH]2)c1` (stereo not drawn) gave StopGo RLuc -3% and 2A firefly -12%.
Screening Cc1ccc(C)c(/C=C/C(=O)c2cccc([N+](=O)[O-])c2)c1 returned StopGo RLuc 11% and 2A firefly 32%[activator].
For O=C(NCCO)c1nc(-c2cccc3[nH]ccc23)no1 the results were StopGo RLuc 20% and 2A firefly 163%[activator].
N#CC1=C(N)N(c2ccc(Cl)cc2)C2=C(C(=O)CCC2)C1c1cc(CN2CCOCC2)cs1 (stereo not drawn) was read as StopGo RLuc -6% and 2A firefly -26%.
Screening COc1ccc(/C=C(/CC(=O)O)c2nc3ccccc3s2)cc1 returned StopGo RLuc 29% and 2A firefly 179%[activator].
`Cc1ccc(CNS(=O)(=O)c2c(C(=O)N3CCC(C)CC3)c(C)n(C)c2C)cc1` gave StopGo RLuc 138%[activator] and 2A firefly -3%.
Screening O=C1CC(c2ccc3c(c2)OCO3)c2c(n3c(nc4ccccc43)[nH]c2=O)N1 (stereo not drawn) returned StopGo RLuc -15% and 2A firefly -19%.
Cc1ccc2[nH]cc(CCNC(=O)/C=C/c3ccccc3)c2c1 was read as StopGo RLuc 5% and 2A firefly 18%.
For O=C(O)c1ccccc1S(=O)(=O)Cc1ccc(Cl)cc1 the results were StopGo RLuc 9% and 2A firefly 11%.
Screening CCOc1ccccc1Nc1cc(-c2ccccc2)nc(C)n1 returned StopGo RLuc -11% and 2A firefly -13%.
`COc1ccc(C(=O)/C=C/c2cccs2)c(OC)c1` gave StopGo RLuc inconclusive and 2A firefly 144%[activator].
Screening Fc1ccc(N2CCN(c3nc4ccccc4c4nc(-c5ccccc5)nn34)CC2)cc1 returned StopGo RLuc -16% and 2A firefly -14%.
`CCCCOc1ccc(C(=O)Nc2cccc3ccc(C)nc23)cc1` gave StopGo RLuc 6% and 2A firefly 6%.
`Cc1nc(NCc2ccccc2)sc1C(=O)NC1CC1` gave StopGo RLuc 1% and 2A firefly 89%[activator].

Molecules above containing a cyano group:
For N#Cc1c(-c2ccccc2)cc(-c2cccs2)nc1SCCS(=O)(=O)Cc1ccccc1 the results were StopGo RLuc 7% and 2A firefly -5%.
For N#CC1=C(N)OC2=C(C(=O)CC(c3ccccc3)C2)C1c1ccccc1Br (stereo not drawn) the results were StopGo RLuc -14% and 2A firefly -10%.
N#CC1=C(N)N(c2ccc(Cl)cc2)C2=C(C(=O)CCC2)C1c1cc(CN2CCOCC2)cs1 (stereo not drawn) was read as StopGo RLuc -6% and 2A firefly -26%.

Fetched by structure from the entries so far, 2 records:
For O=C(O)c1ccccc1S(=O)(=O)Cc1ccc(Cl)cc1 the results were StopGo RLuc 9% and 2A firefly 11%.
Screening CCOc1ccccc1Nc1cc(-c2ccccc2)nc(C)n1 returned StopGo RLuc -11% and 2A firefly -13%.

(next part)
NC(=O)C1=C(Nc2ccc(Br)cc2F)c2ccccc2S1(=O)=O was read as StopGo RLuc 159%[activator] and 2A firefly 29%.
Screening O=C(O)c1cc(NC(=O)c2ccc(CO)cc2)cc(C(=O)O)c1 returned StopGo RLuc 0% and 2A firefly 9%.
`Cc1ccc(CSCC(=O)NCc2ccc(F)cc2)cc1` gave StopGo RLuc -3% and 2A firefly -13%.
`COc1ccc(-n2nc3cc(C)c(NC(=O)c4ccc(C)cc4C)cc3n2)cc1Cl` gave StopGo RLuc -9% and 2A firefly 23%.
`CCc1ccc(S(=O)(=O)c2nnn3c2nc(NCc2ccccc2)c2cc(Cl)ccc23)cc1` gave StopGo RLuc 4% and 2A firefly -12%.
For COc1ccc2oc(-c3cccc(NC(=O)c4cc([N+](=O)[O-])ccc4N4CCOCC4)c3)nc2c1 the results were StopGo RLuc 15% and 2A firefly 69%[activator].
Screening Cc1cccc(C)c1NC(=O)c1sc(-n2nc(C)c(Cl)c2C)nc1C returned StopGo RLuc 0% and 2A firefly 9%.
For CC(C)CCn1c(/C=C/c2ccccc2)nc2ccccc21 the results were StopGo RLuc inconclusive and 2A firefly 9%.
Cc1cc(=O)oc2cc(OCc3nc(-c4ccccc4)no3)ccc12 was read as StopGo RLuc -9% and 2A firefly 23%.
CSc1cccc(NC(=O)C2CCN(S(=O)(=O)c3ccc4[nH]c5c(c4c3)CCCCC5)CC2)c1 was read as StopGo RLuc -12% and 2A firefly -22%.
`CC1CC(C)CN(Cc2ccccc2C#N)C1` (stereo not drawn) gave StopGo RLuc 22% and 2A firefly 42%[activator].
For COc1ccccc1-c1nnc(SCC(=O)c2ccc(Br)s2)n1C the results were StopGo RLuc 8% and 2A firefly 22%.
For Cc1cc(C)cc(C(=O)OCCN(C)C2CN(Cc3cn(Cc4ccc([N+](=O)[O-])cc4)nn3)S(=O)(=O)C2)c1 (stereo not drawn) the results were StopGo RLuc 9% and 2A firefly 20%.
Screening CCOC(=O)C1=C(c2ccccc2)NC(=S)NC1c1ccccc1 (stereo not drawn) returned StopGo RLuc 0% and 2A firefly 8%.
For Cc1ccccc1NC(=O)Cn1c(=O)oc2cc(Br)ccc21 the results were StopGo RLuc -9% and 2A firefly -6%.
For Cc1ccc(CNC(=O)C2CCN(C(=O)N3CC(C)Oc4ccc(Cl)cc43)CC2)cc1 (stereo not drawn) the results were StopGo RLuc 19% and 2A firefly -5%.
Screening O=C(/C=C/c1cccc(Cl)c1Cl)c1ccc(OC(F)F)cc1 returned StopGo RLuc 0% and 2A firefly 0%.
O=c1ccsc2ccc3ccccc3c12 was read as StopGo RLuc -8% and 2A firefly 96%[activator].
Cc1ccc(C)c(N2CCN(c3ccc4cc(S(=O)(=O)N5CCC(C)CC5)ccc4n3)CC2)c1 was read as StopGo RLuc 15% and 2A firefly 9%.
For CCOC(=O)N1CCN(c2cc(C(=O)O)c3cc(NC(=O)C(C)C)ccc3n2)CC1 the results were StopGo RLuc -10% and 2A firefly -4%.
`O=C(Nc1cc2c(cc1C(=O)c1ccccc1Br)OCCO2)c1ccccc1` gave StopGo RLuc -10% and 2A firefly -15%.
Screening CC(OC(=O)c1cc(-c2ccco2)nc2ccccc12)C(=O)NC(=O)NC1CCCCC1 (stereo not drawn) returned StopGo RLuc -12% and 2A firefly 2%.
Screening Cc1ccc2oc(C(=O)Nc3c(C(=O)Nc4ccccc4)oc4ccccc34)cc(=O)c2c1 returned StopGo RLuc -16% and 2A firefly -13%.
`CCOc1cccc2cc(S(=O)(=O)c3ccccc3F)c(=O)oc12` gave StopGo RLuc -1%&-15% and 2A firefly -9%&-15%.

Already shown: entries from further up.
Screening CC(OC(=O)c1cc(-c2ccco2)nc2ccccc12)C(=O)NC(=O)NC1CCCCC1 (stereo not drawn) returned StopGo RLuc -12% and 2A firefly 2%.
Screening Cc1ccc2oc(C(=O)Nc3c(C(=O)Nc4ccccc4)oc4ccccc34)cc(=O)c2c1 returned StopGo RLuc -16% and 2A firefly -13%.
`CCOc1cccc2cc(S(=O)(=O)c3ccccc3F)c(=O)oc12` gave StopGo RLuc -1%&-15% and 2A firefly -9%&-15%.

Additional records:
COc1cc(Cl)c(NC(=O)C2CCN(c3nccnc3Oc3ccc(C)cc3)CC2)c(OC)c1 was read as StopGo RLuc 6% and 2A firefly 7%.
Screening CCOc1ccc(NC(=O)c2cc(=O)c3cc(C)ccc3o2)cc1OC returned StopGo RLuc -4% and 2A firefly 13%.
For CCn1nc(C(=O)Nc2nc(-c3ccc(OC)c(OC)c3)cs2)c2ccccc2c1=O the results were StopGo RLuc 23% and 2A firefly 10%.
COC(=O)c1cc(-c2cccnc2)nc2onc(-c3ccc(C)cc3)c12 was read as StopGo RLuc 3% and 2A firefly 45%[activator].
Cc1cc(C)c(NC(=O)Cn2c(=O)n(-c3cccc(C(F)(F)F)c3)c(=O)c3c(C)c(C)sc32)c(C)c1 was read as StopGo RLuc -21% and 2A firefly -19%.
`COc1ccc(Nc2oc(-c3ccc(COc4ccccc4)o3)nc2C#N)cc1` gave StopGo RLuc -8% and 2A firefly 29%.
